2A StopGo: FMDV 2A StopGo reporter, luciferase signal | human cells with a luciferase reporter of 2A StopGo recoding; control for the full effect not named in the record | Potency, µM (top dose mostly 57.9 µM), without a hit: at the highest dose signal change, negative = less light | 1.2% of 410,000 active; active = well fitted falling curve with a large enough effect; inconclusive = small, poorly fitted or top-dose-only effect; inactive = no such curve, though single readings can be large or run the other way; tested in HEK293T cells; also: nearly all actives have a fitted effect of over 45% in size; luciferase light after 4 h
RE007 growth inh: less growth of the S. pombe RE007 Vpr strain; S. pombe RE007 Vpr strain, BacTiter-Glo ATP luminescence, 24 h; control for the full effect not named in the record; 0.21% of 360,000 active; Potency, µM (doses to about 92.2 µM), without a hit: at the top dose activity change, negative = less growth; active = well fitted falling curve with a large enough effect; inconclusive = small, poorly fitted or top-dose-only effect; inactive = no such curve, though single readings can be large or run the other way;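 also: nearly all actives have a fitted effect of over 50% in size; the assay follows cell death caused by Vpr and the record does not say whether a fall means rescue or toxicity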
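Fission yeast strain RE007, carrying one chromosomally integrated HIV-1 vpr copy, was seeded at OD 0.01 in PMG+AL medium with 23 nL pinned compound. After 24 h at 30 °C and 99% humidity, viability was read by BacTiter-Glo luminescence.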
* = called active by the depositor; ? = inconclusive; [ ] = remark or other dose. % is scaled to controls: 0 for no effect and ±100 for the full control effect; potency is read from the fitted curve at half-maximal effect. These rows are one share of the data. The share of hits here may be higher or lower than overall.

SMILES	2A StopGo	RE007 growth inh
Cc1cnc(C(=O)N(c2ccc(N3CCOCC3)cc2)C2C(=O)Nc3ccccc3N=C2c2ccc(F)cc2)cn1 (stereo not drawn)	-3%	-16%
Cc1c(Br)cccc1NC(=O)C1(C)CCN1Cc1ccccc1OC(F)F (stereo not drawn)	-23%	6%[18.4 µM]
O=C(Cn1ncc2ccccc2c1=O)Nc1cccc(C(F)(F)F)c1	-12%	2%
COc1cccc(NC(=O)N(C)C[C@@H]2OCc3cn(nn3)CCCC(=O)N([C@H](C)CO)C[C@H]2C)c1	-16%	2%
CC(O)[C@H]1CN=C(N)N1CC1CCCCC1 (stereo partly drawn)	-2%	8%
COc1ccc(-c2csc(NC(C)c3nc4cc(C(=O)NCCCO)ccc4n3Cc3ccc(C)cc3)n2)cc1 (stereo not drawn)	-2%	-4%
CN(C(=O)c1ccc(NC(=O)Cc2cccc(NC(=O)C3CCCN(C(=O)c4ccccc4)C3)c2)cc1)C1CC1 (stereo not drawn)	19%	-4%
CC(Cc1ccccc1)NCCC(c1ccccc1)c1ccccc1 (stereo not drawn)	-20%	-4%[18.4 µM]
Cc1ccc(S(=O)(=O)NC(=O)C2(C)CCN2C(=O)Cc2ccc(C(C)(C)C)cc2)nc1 (stereo not drawn)	-17%	-6%
Cn1c(=O)c2cc(NC(=O)NCc3ccccc3)ccc2n1C/C=C/c1ccccc1	13%	3%
CSc1ccc(/C=C/C(=O)OCC(=O)NC2CCCCCC2)cc1	-2%	-13%
C[C@H](CO)N1C[C@H](C)[C@@H](CN(C)S(=O)(=O)c2ccc(Oc3ccccc3)nc2)OCc2cnnn2CCCC1=O	-9%	-4%
C[C@H]1CN([C@@H](C)CO)S(=O)(=O)c2ccc(Br)cc2O[C@@H]1CN(C)S(=O)(=O)c1ccccc1F	-9%	63%
COc1ccc2c(CN3CCN(c4ccc(Cl)c(Cl)c4)CC3)cc(=O)oc2c1	0%	4%
Cc1cccc(C)c1NC(=O)CN(Cc1ccccc1)Cc1ccccc1	?	2%

Compound profiles, as listed above:
`COc1cccc(NC(=O)N(C)C[C@@H]2OCc3cn(nn3)CCCC(=O)N([C@H](C)CO)C[C@H]2C)c1` across the screens: 2A StopGo = -16%; RE007 growth inh = 2%
`Cc1cnc(C(=O)N(c2ccc(N3CCOCC3)cc2)C2C(=O)Nc3ccccc3N=C2c2ccc(F)cc2)cn1` (stereo not drawn) across the screens: 2A StopGo = -3%; RE007 growth inh = -16%

The list goes on.
SMILES	2A StopGo	RE007 growth inh
CC(=O)Nc1ccc(C(=O)N2CCCC(c3cc(C(=O)Nc4ccccc4)no3)C2)cc1 (stereo not drawn)	4%	-8%
CCCCn1nnnc1C1(C)CCC(=O)N1CCOc1ccccc1 (stereo not drawn)	-18%	0%
O=C(NCc1cccs1)c1ccc(CS(=O)Cc2ccc(Cl)cc2)o1 (stereo not drawn)	-11%	-4%
Cc1c(C)c2c(c(C)c1O)CCC(C)(C(=O)O)O2 (stereo not drawn)	-6%	10%[18.4 µM]
O=C(COc1ccc(S(=O)(=O)N2CCOCC2)cc1)NCCc1ccc(Cl)cc1	-26%	-6%
Cc1cc(Cl)c2oc(C(=O)N3CCN(c4cnccn4)CC3)c(C)c2c1	20%	4%
C[C@@H]1CN([C@H](C)CO)C(=O)c2cc(C#Cc3ccccc3F)cnc2O[C@@H]1CN(C)S(=O)(=O)c1ccccc1F	-21%	-8%
Cc1cc2oc(=O)cc(CN3CCCCCCC3)c2cc1Cl	-9%	-3%
COc1ccc(C)cc1NC(=O)Cc1csc(NC(=O)Nc2ccccc2OC)n1	?	9%
CC(=O)Nc1ccc(C(=O)N2CCCCC2c2cc(C(=O)N3CCOCC3)no2)cc1 (stereo not drawn)	-5%	29%
CCN(CC)c1ccc(C(NC(=O)C(C)C)c2ccc3cccnc3c2O)cc1 (stereo not drawn)	-22%	-21%
O=C(c1[nH]c(C(F)(F)F)nc1-c1ccccc1)N1CCN(Cc2c(F)cccc2Cl)CC1	-9%	2%
COc1ccc(-c2c(-c3cccc(C)c3)oc3ccc(-c4ccc5c(c4)OCO5)cc23)cn1	-16%	-6%
CN(C(=O)c1cccc(NC(=O)Cc2cccc(NC(=O)C3CCCN(C(=O)C4CCCC4)C3)c2)c1)C1CCC1 (stereo not drawn)	-27%	-5%
O=C(/C=C/[C@H]1O[C@@H](n2cnc3c(NC(=O)c4ccccc4)ncnc32)[C@H](O)[C@@H]1O)NC1CCCCC1	-20%	20%

3 records drawn at random from those above:
SMILES	2A StopGo	RE007 growth inh
COc1ccc(-c2c(-c3cccc(C)c3)oc3ccc(-c4ccc5c(c4)OCO5)cc23)cn1	-16%	-6%
CCN(CC)c1ccc(C(NC(=O)C(C)C)c2ccc3cccnc3c2O)cc1 (stereo not drawn)	-22%	-21%
O=C(COc1ccc(S(=O)(=O)N2CCOCC2)cc1)NCCc1ccc(Cl)cc1	-26%	-6%

Next records
SMILES	2A StopGo	RE007 growth inh
CCN1CCN(c2ccc(S(=O)(=O)N3CCOCC3)cc2NC(=O)C2CCC(C(C)(C)C)CC2)CC1 (stereo not drawn)	-11%	1%
O=C(Nc1nnc([C@@H]2C[C@H](O)[C@@H](CO)O2)s1)c1ccc(Oc2ccccc2)cc1	-16%	4%[18.4 µM]
Cc1ccc(NC(=O)Nc2ccccc2)nc1	92%[activator]	-2%
CCc1nnc(NC(=O)CCC2CCCCC2)s1	25%	16%
CCCCOCCOC(=O)C1OC1(C)c1ccccc1 (stereo not drawn)	-13%	-5%
CC(C)(C)Cc1c(C2CCCCC2)nc2ccc(Cl)cn12	-18%	10%
C[C@@H]1CN([C@H](C)CO)C(=O)CCCn2cc(nn2)CO[C@H]1CN(C)C(=O)Nc1ccc2c(c1)OCCO2	26%	22%
C[C@@H]1CN([C@H](C)CO)C(=O)CCCn2nncc2CO[C@H]1CN(C)S(=O)(=O)c1ccc(Oc2ccccc2)cc1	-7%	-1%
CC(C)N1C(=O)C(=O)N(CC(=O)N2c3ccccc3CC2C)C1=O (stereo not drawn)	-24%	-4%
CC1=C(C(=O)N2CCCCCC2)CC(CC(=O)NCC2CCCCC2)C(=O)N1CCCN1CCCC1=O (stereo not drawn)	-25%	0%
O=C(C(=O)N1CCN(C(=O)OCc2ccccc2)CC1)c1cccs1	-10%	-2%
CN1C[C@H]2CON(C)[C@H]2C[C@H]1c1cccc(-c2ccc(C#N)cc2)c1	6%	-7%
O=c1cc(CCc2ccccc2)oc2cccc(O)c12	7%	13%
CC1(C(=O)NS(=O)(=O)c2ccc3c(c2)CCO3)CCN1C(=O)C1(c2ccc(Cl)cc2)CC1 (stereo not drawn)	46%[activator]	7%
CC1(C(=O)Nc2ccccc2)CCN1C(=O)CCc1ccc(Cl)cc1Cl (stereo not drawn)	-24%	1%

As entered above.
For RE007 growth inh, CC(Cc1ccccc1)NCCC(c1ccccc1)c1ccccc1 (stereo not drawn) is listed with -4%[18.4 µM]
For RE007 growth inh, Cn1c(=O)c2cc(NC(=O)NCc3ccccc3)ccc2n1C/C=C/c1ccccc1 is listed with 3%
For 2A StopGo, COc1ccc(-c2csc(NC(C)c3nc4cc(C(=O)NCCCO)ccc4n3Cc3ccc(C)cc3)n2)cc1 (stereo not drawn) is listed with -2%

Carrying on.
SMILES	2A StopGo	RE007 growth inh
CN1CCN(C(=O)c2cccc(-c3ccc4nccn4c3)c2)CC1	-13%	-17%
Cn1c(=O)c2cc(NC(=O)CCc3cccc(Cl)c3)ccc2n1Cc1cccc(C(F)(F)F)c1	-19%	15%
CC(C)C[C@H]1COCCS(=O)(=O)N1Cc1ccc(Cl)c(Cl)c1	-24%	-10%
COc1ccccc1C1SCCN1S(=O)(=O)c1ccccc1 (stereo not drawn)	-13%	-7%
CCOC(=O)C(c1nc2ccccc2[nH]1)n1c(-c2ccccn2)nc2ccccc21 (stereo not drawn)	0%	37%
COc1ccccc1CNC(=O)c1cc(-c2cc(Cl)ccc2C)n[nH]1	-2%	-2%
O=C(C[C@H]1CC[C@H]2[C@@H](COC[C@H](O)CN2Cc2ccccc2)O1)NCCCN1CCOCC1	-5%	-15%
CCN(CC)C(=O)C1=C(C)N(Cc2ccccc2)C(=O)C(CC(=O)NCc2cccs2)C1 (stereo not drawn)	0%	-1%
CCCCNC(=O)[C@@H]1CC=C[C@@H]2CCN(Cc3ccc(Cl)c(Cl)c3)C(=O)[C@@H]21	-5%	-20%
CC(C)(C)c1ccc(C(=O)NCc2ccco2)cc1	82%[activator]	-27%
O=C1c2ccccc2C(c2nnnn2-c2ccc3c(c2)OCCO3)N1CCOc1ccccc1 (stereo not drawn)	33%[activator]	-1%
C/C=C/c1cccc(-c2nc(C(=O)NC3CCC3)cc3c2[C@@H](CCO)N(S(=O)C(C)(C)C)C3)c1 (stereo partly drawn)	-1%	4%
CC(=O)C1=CCC(c2ccc(C)cc2)N(S(=O)(=O)c2ccc(Cl)cc2)C1 (stereo not drawn)	-4%	-5%
COc1ccc(NC(=O)Nc2ccc3c(c2)C(=O)N([C@H](C)CO)C[C@H](C)[C@H](CN(C)Cc2ccc(C(=O)O)cc2)OCCCC[C@@H](C)O3)cc1	-22%	25%
CC[C@@H]1CCC[C@@H](O)[C@@H](C)C(=O)O[C@H](C)[C@@H](C)C/C=C(C)/C(OC)=C\C(=O)N(C)C([C@@H](C)CC)C(=O)N(C)[C@@H](C(C)C)C(=O)N(C)[C@@H](COC)C(=O)N2CCC[C@H]2C(=O)N(C)[C@@H](C(C)C)C(=O)N2CCC[C@H]2C(=O)O1 (stereo partly drawn)	?	-13%
CCCNC(=O)C1(C)CCCN(Cc2cccc(C(F)(F)F)c2)C1 (stereo not drawn)	0%	-19%
O=C(O)c1ccc2cc(-c3ccccc3)[nH]c2c1	?	-15%
COC(=O)[C@@]12C[C@@H](CC(=O)NCc3ccc(OC)c(OC)c3)C(=O)N(Cc3ccccc3)C1=CCC(C)(C)C2	-19%	6%
COc1cccc(NC(=O)C2(C)CCN2Cc2ccc(-c3ccccc3)o2)c1 (stereo not drawn)	-8%	2%[18.4 µM]
O=C1c2cccc(O)c2C(=O)c2c(O)cc(CO)cc21	-15%	-12%
CS(=O)(=O)c1cc(N2CCOCC2)ccc1CNC[C@H]1O[C@@H](n2cnc3c(=O)[nH]c(N)nc32)[C@H](O)[C@@H]1O	-6%	2%
Cc1cc(CNC[C@H]2O[C@@H](n3cnc4c(N)ncnc43)[C@H](O)[C@@H]2O)no1	-23%	-21%
O=C(NCc1ccccc1)C(C1CC1)n1c(-c2cccs2)nc2ccccc21 (stereo not drawn)	-18%	-10%
O=C(OCc1cn([C@@H]2C[C@H](c3ccccc3)N(C(=O)c3cccs3)C[C@H]2O)nn1)c1ccccc1	0%	-7%
CCOC(=O)[C@]12CCC=C1N(Cc1ccc3c(c1)OCO3)C(=O)[C@H](CC(=O)N1CCCCC1)C2	-6%	5%
O=C(O)c1c[nH]n2c(=S)ncnc12	-7%	4%
CCc1nc2c(OCCc3cccc(OC)c3)cccn2c1N(C)C(=O)c1cccs1	?	-16%
CC1=C(O)C(=O)C(c2c(C)cc(C)c(Br)c2C)=C(O)C1=O	?	?
COc1ccc([C@H]2C[C@@H](O)[C@H](n3cc(C4CC4)nn3)CN2C(=O)c2cccs2)cc1	-12%	11%
C=Cc1ccc(Cn2c(C)c(C(=O)NCc3cccc(C(F)(F)F)c3)sc2=O)cc1	-12%	-9%[18.4 µM]
CC(=O)C1CCC2C3CCC4CC(O)CCC4(C)C3CCC12C (stereo not drawn)	?	14%
O=C1NC[C@H](CC2CCCCC2)N(CCC23CC4CC(CC(C4)C2)C3)C1=O	-14%	0%
O=C(Nc1ccc2c(c1)OCCO2)C(c1cc2ccccc2o1)N1CCN(c2ccc(C(F)(F)F)cn2)CC1 (stereo not drawn)	25%	5%
CCCNC(=O)N1[C@H]2CC[C@@H]1C(C(=O)OC)=C(c1cccc(OC)c1OC)C2	13%	1%
C[C@H](CO)N1C[C@H](C)[C@H](CN(C)C(=O)c2ccccc2)OCc2cnnn2CCCC1=O	1%	-9%
CN(Cc1ccc(Cl)c(Cl)c1)C(C(=O)NCc1ccccc1)c1ccc(C(F)(F)F)cc1 (stereo not drawn)	-9%	-7%
CCSc1nnc(NC(=O)CCC2CCCCC2)s1	2%	13%
CC(=O)ON=C1C=CC(=C(C#N)c2ccccc2)C=C1	?	4µM*
Fc1ccc(-c2nc3ccc(Cl)cn3c2Cc2cccc(Cl)c2)cc1	9%	10%
CCN1C[C@@H]2[C@@H]3C(=O)N(Cc4ccccc4)C(=O)[C@@H]3[C@](C)(C1=O)N2C(=O)c1ccc(C)cc1	-8%	10%
CC1Oc2ccc(C#N)cc2N(Cc2cccc(F)c2)C1=O (stereo not drawn)	-15%	31%
CSc1c2c([nH]c(=O)c1C#N)-c1ccccc1CC2	0%	-2%[18.4 µM]
COC(=O)Cc1cc(=O)n2c(nc3ccccc32)[nH]1	21%	7%
CCC(C(N)=O)N1C(=O)C2C3CCC(C3)C2C1=O (stereo not drawn)	-7%	-10%
CCOC(=O)[C@]12CCCC=C1N(Cc1ccc(Cl)cc1Cl)C(=O)[C@H](CC(=O)NCC13CC4CC(CC(C4)C1)C3)C2	-26%	12%
O=C(NCCc1ccccc1)[C@@H]1CC=C[C@@H]2CCN(C3CCCCC3)C(=O)[C@@H]21	-10%	4%
CN(C(=O)CN1CCCCCC1)c1c(N)n(Cc2ccccc2)c(=O)[nH]c1=O	-11%	1%
CC(=O)C[C@@H]1SC[C@H](c2ccccc2)N1S(=O)(=O)c1ccc(C)cc1	0%	13%

Compound activity: PubChem BioAssay, National Center for Advancing Translational Sciences (NCATS)
